Source: PubChem BioAssay
Ecoli rRNA inh – inhibitors of bacterial rRNA selective over humanized ribosomes | E. coli WT GFP vs humanized-ribosome RFP mutants, fluorescence, 24 h; hits give low values; DMSO median 0, no signal -100 | GFP signal change (wild-type ribosome), % (concentration not given with the values) | 1.6% of 350,000 active | AID 720706;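 active = significant combined selectivity score with lowered wild-type GFP, culture density cut under 30%, mutant RFP and density less affected; inactive = any of these conditions unmet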; also: one replicate is shown; some compounds called inactive have numbers as strong as hits
AF4-AF9 inh – MLL-AF4/AF9 protein interaction inhibition; P42568; AID 651704; inhibition, % at 10 µM; AlphaScreen, biotin-AF4 peptide binding to FLAG-AF9; 0.47% of 350,000 active;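 active = every replicate reaching a set inhibition limit, whatever the replicate mean, cut at about 25% in these data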;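 also: 0% = plate neutral control median and 100% = total signal loss; the record names both 10 and 1 µM as test concentration; the first replicate is given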
Target sequence (P42568 whole entry, looked up): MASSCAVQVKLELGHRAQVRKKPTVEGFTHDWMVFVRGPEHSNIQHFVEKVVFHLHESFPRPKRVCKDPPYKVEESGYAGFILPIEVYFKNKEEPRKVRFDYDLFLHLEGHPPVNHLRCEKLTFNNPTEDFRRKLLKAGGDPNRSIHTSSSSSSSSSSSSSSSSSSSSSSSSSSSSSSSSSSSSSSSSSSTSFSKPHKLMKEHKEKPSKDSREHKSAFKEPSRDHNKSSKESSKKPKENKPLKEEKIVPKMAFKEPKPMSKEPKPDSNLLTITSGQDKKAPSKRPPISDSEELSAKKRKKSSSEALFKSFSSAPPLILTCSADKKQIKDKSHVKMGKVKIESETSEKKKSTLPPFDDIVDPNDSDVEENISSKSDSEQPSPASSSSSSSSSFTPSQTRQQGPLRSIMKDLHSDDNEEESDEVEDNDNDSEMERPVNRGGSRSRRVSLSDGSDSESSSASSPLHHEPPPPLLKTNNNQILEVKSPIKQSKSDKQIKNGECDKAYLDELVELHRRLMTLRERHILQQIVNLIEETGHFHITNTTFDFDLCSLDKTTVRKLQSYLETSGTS
FGF22 binding – shifts melting point of recombinant human FGF22 | Q9HCT0 | recombinant FGF22 thermal shift, SYPRO orange fluorescence; percent of sucrose octasulfate shift, DMSO zero | calls only at 9.99 µM | 1.5% of 340,000 active;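 active = melting point raised past a set limit in the mean and every replicate; three in four hits are not shown here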
Target sequence (Q9HCT0 whole entry, looked up): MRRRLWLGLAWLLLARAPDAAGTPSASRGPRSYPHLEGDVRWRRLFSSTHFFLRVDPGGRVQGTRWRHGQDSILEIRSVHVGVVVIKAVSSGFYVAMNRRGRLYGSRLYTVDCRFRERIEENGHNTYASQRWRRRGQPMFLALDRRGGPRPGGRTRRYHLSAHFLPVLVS
Ecoli rRNA inh OD600 – also measured in Ecoli rRNA inh; calls as there; OD600 change, %; measured here: OD600 growth;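 optical density of the mix in the first replicate; 0 = DMSO median and -100 = no signal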
Ecoli rRNA inh RFP – recorded beside Ecoli rRNA inh, whose call it bears; RFP signal change, %; measured here: RFP humanized mutant strains;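 first replicate; 0 = DMSO median and -100 = no signal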
* marks the source's active call; other numbers are inactive results; i = inactive. A portion of the library. The share of hits here may be higher or lower than overall.

Ecoli rRNA inh	Ecoli rRNA inh OD600	Ecoli rRNA inh RFP	AF4-AF9 inh	FGF22 binding	SMILES
-17	-20	6.1	-7.4	i	O=C(Nc1ccccc1)N1C[C@@H]2[C@H](c3ccccc31)[C@H](CO)N2C(=O)c1ccccn1
12	16	0.3	9.2	i	COc1cccc(-c2cnc(C(O)c3cccc(CN4CCCCC4)c3)[nH]2)c1 (centres undefined)
-4	-5	-1.6	-0.9	i	O=C(C[C@@H]1CC[C@H](NC(=O)Cc2cccnc2)[C@H](CO)O1)Nc1ccc(-c2ccccc2)cc1
2	-4	-1.5	-10	i	COc1ccc(NC(=O)N[C@@H]2CC[C@H](CCn3cc(-c4ccc(F)cc4)nn3)O[C@H]2CO)cc1
-40	-49	30	14	i	C[C@H]1CCCCO[C@H](CN(C)Cc2ccc3c(c2)OCO3)[C@@H](C)CN([C@@H](C)CO)C(=O)c2cc(NC(=O)Nc3ccc(F)cc3)ccc2O1
3	12	-1.1	-6.8	i	C[C@@H]1CN([C@H](C)CO)C(=O)c2cc(NC(=O)Nc3ccc(F)cc3)ccc2O[C@H]1CN(C)S(=O)(=O)c1cn(C)cn1
-1	8	4.6	-2.4	i	C[C@H]1CN([C@@H](C)CO)C(=O)Cc2cc(NC(=O)Cc3ccccc3)ccc2O[C@@H]1CN(C)Cc1ccc(Oc2ccccc2)cc1
1	6	-3.6	0.1	i	CCS(=O)(=O)N1CC2(CN(C(=O)CN3CCOCC3)[C@@H](CO)c3c2c2ccc(OC)cc2n3C)C1
-5	-18	3.3	-4.2	i	C[C@H]1CN([C@@H](C)CO)S(=O)(=O)c2ccc(C3=CCCC3)cc2O[C@H]1CN(C)C(=O)C1CCC1
-3	-6	3.4	-2.5	i	COc1cccc(S(=O)(=O)N2CC3(CN(C(=O)Nc4cccc(F)c4)[C@@H](CO)c4[nH]c5cc(OC)ccc5c43)C2)c1
3	3	-1.9	-0.1	i	COc1ccc(CN(C)C[C@H]2Oc3ccc(NC(=O)NC(C)C)cc3C(=O)N([C@H](C)CO)C[C@H]2C)cc1
-1	-1	-0.1	-2.0	i	CC(C)CC#Cc1cnc2c(c1)C(=O)N([C@@H](C)CO)C[C@H](C)[C@H](CN(C)S(=O)(=O)c1cn(C)cn1)O2
-14	-29	0.0	-0.5	i	CCCCCC(=O)N1C[C@@H](n2cc(COC(=O)c3ccccc3)nn2)[C@H](O)C[C@@H]1c1ccccc1
-4	-17	2.7	1.5	i	C[C@@H]1CN([C@H](C)CO)C(=O)Cc2cc(NS(=O)(=O)c3ccccc3)ccc2O[C@@H]1CN(C)Cc1ccc2c(c1)OCO2
-5	-13	0.3	-1.2	i	CCS(=O)(=O)N1CCC2(CC1)CN(S(=O)(=O)c1ccccc1)[C@H](CO)c1c2c2ccc(OC)cc2n1C
16	15	2.2	-1.9	i	C#CCN(C[C@H]1[C@H](OC(=O)Nc2cccs2)[C@H](OC(=O)Nc2cccs2)C[C@H]2C(=O)N(c3ccccc3)C(=O)[C@@H]12)S(=O)(=O)c1ccc(C)cc1
-2	6	1.0	-12	i	CCCNC(=O)N(C)C[C@@H]1Oc2ncc(/C=C/c3ccccc3)cc2C(=O)N([C@H](C)CO)C[C@@H]1C
0	9	-2.3	1.3	i	CSc1ncc(Cl)c(C(=O)Nc2sc3c(c2C(=O)NCc2ccco2)CCCC3)n1
-1	4	-0.7	-1.7	i	COc1ccc(NC(=O)N(C)C[C@H]2Oc3ccc(NC(=O)Cn4cnnn4)cc3CC(=O)N([C@H](C)CO)C[C@@H]2C)cc1
0	4	0.3	-15	i	CC(C)NC(=O)N(C)C[C@H]1OCCCC[C@@H](C)Oc2ccc(NC(=O)C3CCCCC3)cc2C(=O)N([C@@H](C)CO)C[C@H]1C

Other compounds
Ecoli rRNA inh	Ecoli rRNA inh OD600	Ecoli rRNA inh RFP	AF4-AF9 inh	FGF22 binding	SMILES
3	-19	2.7	-13	i	Cc1cccc(S(=O)(=O)N2CCCCN3[C@H](C2)[C@@H](c2ccc(C#CC(C)C)cc2)[C@@H]3CO)c1
-55	-73	-6.2	4.9	i	O=C(c1cccc(F)c1)N1CCCCN2[C@H](CO)[C@H](c3ccc(-c4ccccc4)cc3)[C@H]2C1
2	29	-1.8	-1.1	i	N#C[C@@H]1[C@@H](c2ccc(-c3ccncc3)cc2)[C@@H](CO)N1C(=O)CN1CCOCC1
-2	-4	-2.5	-1.6	i	CCCNC(=O)N(C)C[C@@H]1Oc2ncc(-c3ccc(F)cc3)cc2C(=O)N([C@H](C)CO)C[C@H]1C
-1	-5	-0.2	-2.3	i	C[C@@H]1CN([C@@H](C)CO)C(=O)Cc2cc(N(C)C)ccc2O[C@@H]1CN(C)Cc1ccncc1
0	-15	3.0	-1.4	i	O=C(NCC(F)(F)F)c1ccc(S(=O)(=O)NCCc2ccc3c(c2)OCCO3)cc1
-1	3	0.7	0.5	i	COCCNC(=O)C[C@H]1C[C@H]2c3cc(NC(=O)Nc4ccc(C(F)(F)F)cc4)ccc3O[C@H]2[C@H](CO)O1
-1	4	1.2	-3.7	i	O=C(NC1CCCC1)N1CCCCN2[C@H](CO)[C@H](c3ccc(-c4cncnc4)cc3)[C@H]2C1
0	1	-3.0	-1.0	i	C[C@@H]1CCCCO[C@@H](CN(C)C(=O)NC2CCCCC2)[C@@H](C)CN([C@H](C)CO)C(=O)c2cc(NC(=O)Nc3cccc4ccccc34)ccc2O1
3	2	1.6	-1.6	i	CO[C@@H]1CN(C)C(=O)c2cc(NC(=O)CC(F)(F)F)ccc2OC[C@@H](C)N(C(=O)c2ccccc2F)C[C@@H]1C
-7	2	-2.2	-0.9	i	Cc1oc(-c2ccc(Cl)cc2)cc1C(=O)N1CCC1(C)C(=O)O (centres undefined)
3	8	-4.2	-3.0	i	COc1ccc(CN2CC3(CCN(C(=O)C4CCOCC4)CC3)c3c(n(C)c4cc(OC)ccc34)[C@@H]2CO)cc1
1	-1	7.4	0.4	i	CO[C@@H]1CN(C)C(=O)c2cc(NS(=O)(=O)c3ccc(-c4ccccc4)cc3)ccc2OC[C@H](C)NC[C@@H]1C
-5	-20	-5.7	0.7	i	O=C(C[C@@H]1C[C@@H]2c3cc(NS(=O)(=O)c4ccccc4)ccc3O[C@@H]2[C@@H](CO)O1)NC1CCCC1
-14	-30	-4.4	-6.2	i	Cc1cccc(S(=O)(=O)NC(=O)C2(C)CCN2C(=O)c2ccc(C3CCCCC3)cc2)c1 (centres undefined)
10	24	-0.3	-2.9	i	COCCNC(=O)C1(C)CCN(C(=O)c2cc(C(C)(C)C)nn2C)C1 (centres undefined)
-2	2	-1.4	-2.4	i	Cc1cc2c(c(C#N)c1C)NC=NC2C (centres undefined)
-7	-6	0.8	1.1	i	COc1cccc(CN2[C@H](CO)[C@@H]3c4ccccc4N(C(=O)CC(F)(F)F)C[C@@H]32)c1
1	-3	2.0	-3.9	i	Cc1cc(C(=O)Nc2cccc3c2O[C@@H](CN(C)Cc2ccc4c(c2)OCO4)[C@@H](C)CN([C@H](C)CO)C3=O)n(C)n1
4	20	-0.1	-2.6	i	CN(C)CCCNC(=O)c1ccc(-c2cc3nc(NCc4cccnc4)n(C)c(=O)c3s2)cc1

Additional entries follow.
Ecoli rRNA inh	Ecoli rRNA inh OD600	Ecoli rRNA inh RFP	AF4-AF9 inh	FGF22 binding	SMILES
6	7	-2.6	-1.6	i	COc1ccc(NC(=O)N2C[C@H](O)COC[C@@H]3O[C@H](CC(=O)N4CCOCC4)CC[C@H]32)cc1
3	-1	-1.3	-7.3	i	COc1ccc(S(=O)(=O)Nc2ccc3c(c2)CC(=O)N([C@@H](C)CO)C[C@H](C)[C@H](CN(C)C)O3)cc1
1	6	-0.7	3.8	i	C[C@@H]1CCCCO[C@@H](CN(C)S(=O)(=O)c2cn(C)cn2)[C@@H](C)CN([C@H](C)CO)C(=O)c2cc(NC(=O)Nc3cccc4ccccc34)ccc2O1
1	11	-1.3	-0.2	i	C[C@H](CO)N1C[C@H](C)[C@H](CN(C)S(C)(=O)=O)Oc2ccc(NC(=O)Nc3ccc4c(c3)OCO4)cc2CC1=O
4	1	-1.6	-3.2	i	O=C(C[C@H]1CC[C@H](NC(=O)Nc2ccc3c(c2)OCO3)[C@@H](CO)O1)NCCCN1CCOCC1
8	9	-3.0	-1.4	i	COCC(=O)N(C)C[C@@H]1Oc2ncc(-c3cccc(OC)c3)cc2C(=O)N([C@@H](C)CO)C[C@@H]1C
-10	-6	-0.6	-15	i	Cc1cc(C(=O)Nc2cccc3c2O[C@@H](CN(C)CC2CCCCC2)[C@H](C)CN([C@H](C)CO)C3=O)n(C)n1
-9	-8	2.9	0.5	i	O=C(NCc1ccccc1Cl)[C@H]1CCCN1C(=O)[C@H]1CCCN1C(=O)c1ccc(Cl)cc1
5	15	1.0	-1.9	i	COc1ccc2c3c([nH]c2c1)[C@@H](CO)N(C(=O)CN(C)C)CC31CN(C(=O)c2cccnc2)C1
-30*	-18*	2.7*	-0.8	i	COCc1[nH]nc2c1C(c1ccc3c(c1)OCO3)N(c1ccc(OC)cc1)C2=O (centres undefined)
1	6	-1.7	1.6	i	COc1ccc2c3c([nH]c2c1)[C@@H](CO)N(C(=O)C1CCCC1)CC31CN(C)C1
-33	-46	-0.3	2.2	i	CC(C)C[C@H]1CN([C@@H](Cc2ccc(O)cc2)CN2CCC[C@H]2CN2C(=O)C(=O)NC[C@@H]2Cc2ccccc2)C(=O)C(=O)N1CCc1ccccc1
9	16	-3.2	1.3	i	CCn1nccc1NC(=O)c1csc([C@H]2C[C@H](O)[C@@H](CO)O2)n1
-7	-12	0.6	2.8	i	COc1ccc(CN2[C@H](CO)[C@@H]3c4ccccc4N(C(=O)Nc4ccc(F)cc4)C[C@@H]32)cc1
1	0	-2.8	-2.6	i	C[C@@H]1CN([C@H](C)CO)C(=O)c2cc(NS(=O)(=O)c3ccc(Cl)cc3)ccc2O[C@H]1CN(C)Cc1ccc(C(=O)O)cc1
2	2	-2.5	-1.3	i	CO[C@@H]1CN(C)C(=O)c2ccc(NS(=O)(=O)CC(F)(F)F)cc2OC[C@H](C)N(Cc2cccnc2)C[C@H]1C
-1	-3	1.5	-1.1	i	CCCNC(=O)C[C@H]1CC[C@H]2[C@H](COc3ccc(NC(=O)c4cccc(C(F)(F)F)c4)cc3C(=O)N2C)O1
-18	-56	33	8.0	i	C[C@H](CO)N1C[C@H](C)[C@H](CN(C)Cc2ccc3c(c2)OCO3)OCCCC[C@H](C)Oc2ccc(NC(=O)Nc3ccccc3)cc2C1=O
0	7	-4.7	0.2	i	Cc1n[nH]c2ccc([N+](=O)[O-])cc2c1=O
-4	-11	1.5	-0.4	i	O=C(Nc1cc(F)ccc1F)N[C@H]1CC[C@@H](CC(=O)N2CCc3ccccc3C2)O[C@H]1CO

Additional compounds follow:
Ecoli rRNA inh	Ecoli rRNA inh OD600	Ecoli rRNA inh RFP	AF4-AF9 inh	FGF22 binding	SMILES
7	16	-1.8	-3.7	i	CC1(C(=O)NS(=O)(=O)c2cccc(OC(F)F)c2)CCN1C(=O)CCc1cccs1 (centres undefined)
-1	-9	1.0	3.0	i	CO[C@H]1CN(C)C(=O)c2ccc(NC(=O)C3CC3)cc2OC[C@H](C)N(CC2CCCC2)C[C@@H]1C
-1	2	0.0	0.2	i	CCNC(=O)C[C@@H]1CC[C@H]2[C@H](COc3ccc(NC(=O)c4ccccc4)cc3C(=O)N2C)O1
-2	0	0.3	1.5	i	CC(C)NC(=O)Nc1ccc2c(c1)C(=O)N([C@H](C)CO)C[C@H](C)[C@H](CN(C)C(=O)Cc1ccccc1)OCCCC[C@H](C)O2
17	12	-0.5	-1.8	i	O=S1(=O)CC(N2CCN(CCO)CC2)CN1Cc1cn(Cc2ccc(F)cc2)nn1 (centres undefined)
-7	-8	0.5	-0.7	i	COc1ccc(-c2cn(CC[C@@H]3CC[C@H](NS(=O)(=O)c4ccccc4C)[C@@H](CO)O3)nn2)cc1

Reprinted at random: six entries already listed, in no set order.
Ecoli rRNA inh	Ecoli rRNA inh OD600	Ecoli rRNA inh RFP	AF4-AF9 inh	FGF22 binding	SMILES
17	12	-0.5	-1.8	i	O=S1(=O)CC(N2CCN(CCO)CC2)CN1Cc1cn(Cc2ccc(F)cc2)nn1 (centres undefined)
7	16	-1.8	-3.7	i	CC1(C(=O)NS(=O)(=O)c2cccc(OC(F)F)c2)CCN1C(=O)CCc1cccs1 (centres undefined)
-1	-9	1.0	3.0	i	CO[C@H]1CN(C)C(=O)c2ccc(NC(=O)C3CC3)cc2OC[C@H](C)N(CC2CCCC2)C[C@@H]1C
-7	-8	0.5	-0.7	i	COc1ccc(-c2cn(CC[C@@H]3CC[C@H](NS(=O)(=O)c4ccccc4C)[C@@H](CO)O3)nn2)cc1
-2	0	0.3	1.5	i	CC(C)NC(=O)Nc1ccc2c(c1)C(=O)N([C@H](C)CO)C[C@H](C)[C@H](CN(C)C(=O)Cc1ccccc1)OCCCC[C@H](C)O2
-1	2	0.0	0.2	i	CCNC(=O)C[C@@H]1CC[C@H]2[C@H](COc3ccc(NC(=O)c4ccccc4)cc3C(=O)N2C)O1
